# Vaccinia Venus: inhibitors of vaccinia virus (Venus reporter); Vaccinia virus Venus reporter expression, fluorescence; Potency, µM (series often up to 36.5 µM), for inactives: top-dose activity change, negative = inhibition, most hits filed as inhibitors; 330,000 compounds, 0.46% hits; AID 720580; active means well fitted inhibition curve with a large enough effect; inconclusive means small, poorly fitted or top-dose-only effect; inactive means no such curve, though single readings can be large or run the other way; tested in A549 cells; further: nearly all actives have a fitted effect of over 30% in size; inactives centre near -10
# VACV mCherry inh: inhibitors of vaccinia virus infection (mCherry reporter signal) | Vaccinia virus mCherry reporter infection, fluorescence; about a quarter of the inactives have no number | Potency, µM (top dose mostly 36.5 µM), for inactives: at the highest dose activity change, negative = inhibition, actives largely listed as inhibitors | 310,000 compounds, 0.63% hits; active = well fitted inhibition curve with a large enough effect; inconclusive = small, poorly fitted or top-dose-only effect; inactive = no such curve, though single readings can be large or run the other way; tested in A549 cells; further: nearly all actives have a fitted effect of over 35% in size; inactives centre near -10
# The depositor's hits bear a star; i = inactive; ? = inconclusive; / = not tested or not shown; & = joins results of further samples; [ ] = remark or other dose. On the % scale 0 is the no-effect control and ±100 the full control effect; potency means the concentration at half of the fitted maximal effect.
# Values run as follows: VACV mCherry inh, Vaccinia Venus
Cc1ccc(OC(C)C(=O)Nc2ccccc2C(=O)N2CCOCC2)cc1 (configuration not stated)
  -10%, -2%
Nc1c(N(CCO)C(=O)c2ccccc2OCc2ccccc2Cl)c(=O)[nH]c(=O)n1Cc1ccccc1
  -9%, -18%
C(=N\Nc1nc2ccccc2[nH]1)/c1ccc2c(c1)OCO2
  ?, -22%
O=C1CCC(=O)N1CCC(c1ccc(F)cc1)c1ccco1 (configuration not stated)
  i, -5%
Cc1nnc(C)n1/N=C/c1cc(Br)ccc1O
  /, -17%
CSc1ccc(C(O)c2ncc(-c3ccccc3Cl)[nH]2)cc1 (configuration not stated)
  ?, -4%
CCn1c(SC)nc2c(c1=O)SC(C)C2 (configuration not stated)
  -16%, -8%
O=C(c1ccc(-c2cccc(C(F)(F)F)c2)o1)N1CCCCCCC1
  -6%, -20%
COc1cnc(-c2ccccc2)nc1Oc1cccc(C)c1C
  /, 10%
CN1CCC(N(C)C(=O)/C(C#N)=C\c2ccc(OC(F)F)cc2)CC1
  i, -16%
Cc1ccc2oc(-c3cc(NC(=O)/C=C/c4ccco4)ccc3Cl)nc2c1
  -10%, -10%
Cc1ccc(CNC(=O)CCNC(=O)c2ccc([N+](=O)[O-])cc2)cc1
  -20%, -17%
O=C(Oc1ccccc1C(=S)N1CCOCC1)c1ccc([N+](=O)[O-])cc1[N+](=O)[O-]
  ?, -17%
Cc1ccc([C@H]2C[C@H](n3cc(-c4ccc(F)cc4)nn3)[C@@H](O)CN2C(=O)c2cccs2)cc1
  -8%, -17%
COc1cccc2cc(C(=O)N(C)C)c(=O)oc12
  -11%, -14%
Cc1ccc(S(=O)(=O)N=Nc2c(O)[nH]c3ccccc23)cc1C
  2%, -5%
CC1=C(C(=O)N(C(C)C)C(C)C)CC(CC(=O)NCCc2ccccn2)C(=O)N1CCC1=CCCCC1 (configuration not stated)
  -4%, -4%
CCN(CC)S(=O)(=O)c1ccc(C(=O)NCCSc2c[nH]c3ccccc23)cc1
  4%, -9%
CC(C)(C)c1ccc(OCCCC(=O)Nc2ccc(S(N)(=O)=O)cc2)cc1
  -1%, 1%
O=C(COC(=O)c1cncc(Br)c1)NCc1ccc2c(c1)OCO2
  i, -16%
C[C@H](CO)N1C[C@H](C)[C@@H](CN(C)S(=O)(=O)c2ccc(F)cc2)Oc2c(NS(=O)(=O)c3ccccc3)cccc2C1=O
  i, 0%
CCOCCCNc1nc2ccccc2[nH]1
  /, -14%
CCCCCCCNC(=O)C1(CC2CC(c3ccc(Cl)cc3)=NO2)CCN(C(=O)OC(C)(C)C)CC1 (configuration not stated)
  -5%, -22%
Cc1ccc(F)c(S(=O)(=O)NC(=O)C2(C)CCN2C(=O)Cc2cccc3ccccc23)c1 (configuration not stated)
  -4%, -2%
Cc1ccc(-n2cc(-c3ccccc3)c3c(NN4CCOCC4)ncnc32)cc1
  ?, ?
O=S(=O)(c1ccccc1Br)N1CCN(c2nc(-c3cccs3)nc3ccccc23)CC1
  -13%, -9%
CCOc1cc(C2CC(=O)Nc3cc(C)c(C)cc32)ccc1O (configuration not stated)
  /, ?
O=C(NC(=S)NNC(=O)c1ccccc1[N+](=O)[O-])c1ccccc1
  /, -8%
Cc1ccc(CSc2ncnc3onc(C)c23)cc1
  -20%, -8%
Clc1ccc(Oc2ccccc2)c2ncccc12
  -21%, -14%
CCN(CC)c1ccc(C(=O)OCC(=O)Nc2sccc2C#N)cc1
  i, -15%
COc1ccc2nc(NC(=O)Cc3ccc(OC)c(S(=O)(=O)N4CCOCC4)c3)sc2c1
  ?, ?
O=C(NC1CCN(Cc2ccccc2)CC1)c1ccc(S(=O)(=O)NCc2ccco2)cc1
  ?, -16%
CC(Oc1ccccc1)C(=O)N1CCN(C(=O)C(C)Oc2ccccc2)CC1 (configuration not stated)
  -4%, -7%
Cc1ccccc1NC(=O)c1cc(S(=O)(=O)N2CCCCC2)cs1
  ?, -7%
CCOS(C)(=O)=O
  i, -10%
COc1ccc(C)cc1S(=O)(=O)NC1CCCCC1C (configuration not stated)
  /, -14%
CC(=O)Nc1cnc(-c2ccc(O)cc2C)cn1
  i, -12%
CN1c2ccccc2Oc2ccccc21
  -14%, -8%
Cc1ccc(NC(=O)COC(=O)C2(C)CC2(Cl)Cl)cc1S(=O)(=O)N1CCOCC1 (configuration not stated)
  i, -11%
CC(=O)c1cccc(S(=O)(=O)NCCC(=O)Nc2ccc(S(N)(=O)=O)cc2)c1
  3%, 0%
CCOC(=O)N1CCN(CC(O)COc2c(OC)cccc2OC)CC1 (configuration not stated)
  /, -11%
O=C(O)/C=C/c1cnc2ccccc2n1
  i, -5%
c1ccc(Cn2ccnc2C2OCCO2)cc1
  -3%, -8%
O=C(NCC(=O)N(c1ccc(F)cc1)C(C(=O)NC1CCCC1)c1ccncc1)c1ccco1 (configuration not stated)
  -4%, -3%
Nc1sccc1C(=O)N1CCN(c2ccccc2)CC1
  i, -6%
O=c1[nH]c(=O)n(-c2ccc(Br)cc2)c(O)c1C=NCCN1CCCCC1
  i[7.34 µM], 3%[7.34 µM]
Cc1cccc(CNC(=O)CC2C(=O)NCCN2C2CCCC2)c1 (configuration not stated)
  i, -2%
CCC(C)C(NC(N)=O)C(=O)Nc1ccc(S(=O)(=O)Nc2ccc(OC)cc2)cc1 (configuration not stated)
  -2%, 0%
CCOc1ccc(S(=O)(=O)Nc2ccc(C(=O)NCC(C)(C)N3CCOCC3)cc2)cc1
  -7%, 1%
COC(=O)C1=C(c2cccc(C#N)c2)C[C@@H]2CC[C@H]1N2C(=O)NCc1ccc(F)cc1
  i, -14%
Cc1cccc(C)c1NC(=O)CCCn1c(=O)c2cccn2c2ccccc21
  3%, 2%
CC(C)n1cc(CN2CCN(CCc3ccccc3)C(CCO)C2)cn1 (configuration not stated)
  -3%, -10%
CNc1nc(Nc2ccc(C)cc2C)c2sccc2n1
  -21%, -26%
COc1ccc(NC(=O)C2Cc3ccccc3O/C2=N\O)cc1 (configuration not stated)
  2%, 2%
O=C(c1c[nH]c(C(=O)C(Cl)(Cl)Cl)c1)c1ccc(F)cc1F
  -6%, -14%
CCO/C=C1\N=C(c2ccc(F)cc2)OC1=O
  -9%, -11%
COc1cc(OC)c(NC(=O)C(C)n2nc(-c3ccc(C)c(C)c3)ccc2=O)cc1Cl (configuration not stated)
  -17%, -17%
CC(C)NC(=O)Nc1cccc2c1O[C@H](CN(C)S(=O)(=O)c1ccc(F)cc1)[C@@H](C)CN([C@H](C)CO)C2=O
  -2%, -23%
NC(=O)CSc1oc(-c2ccco2)nc1S(=O)(=O)c1ccc(Cl)cc1
  -10%&-18%, -4%&-15%

# Structures above that contain a cyano group:
# Values run as follows: VACV mCherry inh, Vaccinia Venus
CN1CCC(N(C)C(=O)/C(C#N)=C\c2ccc(OC(F)F)cc2)CC1
  i, -16%
CCN(CC)c1ccc(C(=O)OCC(=O)Nc2sccc2C#N)cc1
  i, -15%
COC(=O)C1=C(c2cccc(C#N)c2)C[C@@H]2CC[C@H]1N2C(=O)NCc1ccc(F)cc1
  i, -14%

# (next part)
# Values run as follows: VACV mCherry inh, Vaccinia Venus
CC(C)(C)n1nnnc1C(C1CC1)N1CCC(n2c(=O)[nH]c3ccccc32)CC1 (configuration not stated)
  24%, 4%
CCn1c(SCC(=O)Nc2ccc(Br)cn2)nnc1C1CC1
  i, -9%
COc1ccc(OC)c(NC(=O)Cc2coc3ccc(C(C)C)cc23)c1
  -7%, -9%
CC(C)CN(CCNC(=O)c1cn(C)c2ccc(S(=O)(=O)N3CCOCC3)cc2c1=O)CC(C)C
  -11%, -7%
O=C(O)C1CC(O)CN1C(=O)c1ccco1 (configuration not stated)
  -13%, -5%
Cc1ccc(NNC2CC(=O)N(c3cccc(Cl)c3)C2=O)cc1 (configuration not stated)
  -25%, -12%
Cn1c(=O)nc2n(Cc3ccccc3)c3cccc(Cl)c3cc-2c1=O
  i, -8%
COc1ccccc1N(CC(=O)NC1CCCC1)C(=O)CCCC(=O)Nc1ccccn1
  -2%, -25%
Cn1nc(C(=O)N2CCN(c3cccc(Cl)c3)CC2)c2c1-c1ccccc1S(=O)(=O)C2
  -15%, -6%
O=C(CCc1c[nH]c2ccccc12)N1CCN(S(=O)(=O)c2ccc([N+](=O)[O-])cc2)CC1
  -30%, -21%
Clc1ccc(-c2cc(COc3ccccc3)on2)cc1
  -5%, -10%
Cc1c(NC2(C#N)CCCCC2)c(=O)n(-c2ccccc2)n1C
  6%, -15%
Cc1nc(Nc2cccc(Cl)c2)c2oc3ccccc3c2n1
  -2%, -19%
COC(=O)c1cc2occc2n1Cc1nc(-c2ccccc2)oc1C
  -16%, -7%
CN(C)c1nc(NC(C)(C)C)nc(SCC(=O)Nc2ccccc2)n1
  -15%, -17%
Cc1cccc(NC(=O)C2CCN(C(=O)N3CCOc4ccccc43)CC2)c1C
  -17%, -6%
COCCOC(=O)c1c(NC(=O)CN2CCCc3ccccc32)sc(C(N)=O)c1C
  -5%, -3%
COc1cccc(NC(=O)CSc2nnc(COc3ccc(Cl)cc3)o2)c1
  -13%, -6%
O=C1CC(c2ccccc2)n2nc(N3C(=O)CCC3=O)nc2N1 (configuration not stated)
  -10%, 1%
Cc1cccc(N2CCN(C(=S)Nc3ccc4nc5n(c(=O)c4c3)CCCCC5)CC2)c1C
  -12%, -12%
CCOC(=O)c1nc(NCc2cccnc2)c2ccccc2n1
  -1%, -10%
C=CCn1c(CCNC(=O)c2cccs2)nnc1SCC(=O)Nc1cccc(C(C)=O)c1
  /, -3%
O=C(CSc1n[nH]c(=O)[nH]c1=O)c1ccccc1
  /, ?
Cc1ccccc1CSc1nnc(-c2ccncc2)n1C
  -16%, -9%
CCOC(=O)C1C(c2ccc(O)c(O)c2)NC(=S)NC1(O)C(F)(F)F (configuration not stated)
  i, -6%
C/C(Cl)=C\Cn1c(N2CCCCCC2)nc2c1c(=O)n(C)c(=O)n2C
  -10%, -28%
CCOc1ccc(CN2CCN(Cc3[nH]c4ccc(OC)cc4c3C)CC2CCO)cc1 (configuration not stated)
  -24%, -29%
CCOc1cc(CNc2ccc(N(C)C)cc2)cc(Br)c1OCC(=O)NC(C)(C)C
  /, -15%
COc1ccc(CNC(=O)Cc2csc3nc(-c4ccc(C)cc4)cn23)cc1
  -9%, -14%
COc1ccccc1NC(=O)c1cc2c([nH]c1=O)CC(C)(C)CC2=O
  -5%, -12%
CN(CC(=O)Nc1sccc1C#N)Cc1ccccc1
  -14%, 0%
Cc1cccn2c(=O)c3cc(C(=O)NC4CCCCC4)c(=N)n(Cc4ccc(F)cc4)c3nc12
  i, -7%
CC1(C)CC(=O)C2=C(C1)Nc1[nH]c(=S)[nH]c(=O)c1C2c1ccccc1 (configuration not stated)
  /, -14%
COc1ccc(-c2nc(Cn3c(SCc4cccc(C(F)(F)F)c4)nc4cccnc43)c(C)o2)cc1OC
  ?, -25%
CCCCn1c(SCC(=O)NCCc2ccc(OC)c(OC)c2)nc2c1c(=O)n(C)c(=O)n2C
  i, -6%
CCOc1ccc(S(=O)(=O)N2CCN(C3CC(=O)N(c4cccc(C(C)=O)c4)C3=O)CC2)cc1 (configuration not stated)
  -2%, -17%
CCOc1cc(-c2c(C)c(CC)nc(N)c2C#N)ccc1O
  /, ?
Cn1c(Cl)c(/C=N/OC(=O)c2ccc(Cl)cc2)c2ccccc21
  /, -5%
Cc1ccc(C(=O)C2=C(O)C(=O)N(CCCN3CCOCC3)C23C(=O)N(C)c2ccccc23)o1 (configuration not stated)
  -12%[1.46 µM], ?
O=C(CCN1C(=O)c2cccc3cccc(c23)C1=O)NCC1CCCO1 (configuration not stated)
  i, -3%

# Two neighbouring entries already listed, quoted:
# Values run as follows: VACV mCherry inh, Vaccinia Venus
CCOC(=O)c1nc(NCc2cccnc2)c2ccccc2n1
  -1%, -10%
C=CCn1c(CCNC(=O)c2cccs2)nnc1SCC(=O)Nc1cccc(C(C)=O)c1
  /, -3%

# (further entries)
# Values run as follows: VACV mCherry inh, Vaccinia Venus
N#Cc1c(-c2ccccc2Cl)cc(C2CC2)nc1N
  i, -3%
O=C(NN=C1C2CC3CC1CC(Cl)(C3)C2)c1cccs1
  -4%, -12%
Cn1nc(-c2ccccc2)c(-c2nc(-c3cccc(Cl)c3)no2)c1Cl
  -20%, -10%
CC(=O)Nc1ccccc1NS(=O)(=O)c1ccccc1[N+](=O)[O-]
  i, -16%
COc1ccc(OC)c2nc(-c3cccnc3)ccc12
  -15%, -26%
O=C(CCCCn1c(=S)[nH]c2ccsc2c1=O)NCc1ccc2c(c1)OCO2
  i, -11%
CCN(CC)c1ccc(N/C(N)=N/c2nc(C(F)(F)F)cc(=O)[nH]2)cc1
  -16%, -12%
COCOc1ccc(C=O)c(O)c1
  -10%, -3%
COCc1cc(C)nc(Nc2ccc(C)c(C)c2)c1C#N
  i, -12%
CC(=O)c1ccc(-c2ccc(C(=O)N3CCC(C(N)=O)CC3)o2)cc1
  -13%, -6%
Cc1cc(=O)n2nc(N3CCC(C(=O)N4CCN(c5ccccc5)CC4)CC3)sc2n1
  -11%, -5%
Cc1ccc(NC(=O)c2cc(N(C)C)ccc2[P+](=O)O)cc1
  -18%, -11%
Cc1c(Cl)cccc1NC(=O)CNC(=O)C1CC(=O)N(CCc2ccccc2)C1 (configuration not stated)
  -12%, -11%
CCOc1ccccc1-c1nc2c([nH]1)c(=O)n(C)c(=O)n2C
  -9%, -7%
